ClpP mod = qHTS Assay for Activators of ClpP. ATP-dependent Clp protease proteolytic subunit (Bacillus subtilis (strain 168)), P80244. purified B. subtilis ClpP, FRET peptide cleavage, 20 min. Potency, µM (highest dose often 57.5 µM), for the others: at the top dose activity change, negative = active. actives 1.9% (n = 340,000). AID 651965, 2013; active = well fitted falling curve with a large enough effect; inconclusive = small, poorly fitted or top-dose-only effect; inactive = no such curve, though single readings can be large or run the other way; note: potency is the fitted concentration of half-maximal effect; the source files actives as falling curves though it sought activators and does not explain the sign; nearly all actives have a fitted effect of over 65% in size; many hits overshoot -100%
Target sequence (P80244 whole entry, looked up): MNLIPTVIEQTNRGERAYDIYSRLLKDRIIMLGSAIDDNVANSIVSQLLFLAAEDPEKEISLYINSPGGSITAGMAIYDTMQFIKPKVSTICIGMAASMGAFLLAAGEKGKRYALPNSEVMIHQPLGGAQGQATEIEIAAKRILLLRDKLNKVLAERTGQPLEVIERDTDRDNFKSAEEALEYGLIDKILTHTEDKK
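ClpP 10 microg/mL final, pH 8 Tris/KCl buffer with BSA, glycerol, Tween-20; compound pinned in; FRET-FV substrate; RT 20 min; Ex320/Em430; ΔFRET vs ADEP 5.8 microM, DMSO, no enzyme.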
TRPML1 inh = inhibitors of human TRPML1 channel; Q9GZU1; TRPML1-inducible cells, Ca2+ dye fluorescence, FDSS; stronger effect = lower value; inhibition of EC80 agonist-evoked calcium signal; activity change, negative = inhibition, % (test concentration not listed); actives 0.02% (n = 390,000); in the data active means activity change below about -50%; inconclusive means about -30% to -50%; inactive means above about -30%;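 note: stimulus is agonist 54-4 at its EC80 concentration; % is set by controls: 0 for no effect and ±100 for the full control effect; compound concentration not given in the record; the text of the record puts the active cut at -80%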
Target sequence (Q9GZU1 whole entry, looked up): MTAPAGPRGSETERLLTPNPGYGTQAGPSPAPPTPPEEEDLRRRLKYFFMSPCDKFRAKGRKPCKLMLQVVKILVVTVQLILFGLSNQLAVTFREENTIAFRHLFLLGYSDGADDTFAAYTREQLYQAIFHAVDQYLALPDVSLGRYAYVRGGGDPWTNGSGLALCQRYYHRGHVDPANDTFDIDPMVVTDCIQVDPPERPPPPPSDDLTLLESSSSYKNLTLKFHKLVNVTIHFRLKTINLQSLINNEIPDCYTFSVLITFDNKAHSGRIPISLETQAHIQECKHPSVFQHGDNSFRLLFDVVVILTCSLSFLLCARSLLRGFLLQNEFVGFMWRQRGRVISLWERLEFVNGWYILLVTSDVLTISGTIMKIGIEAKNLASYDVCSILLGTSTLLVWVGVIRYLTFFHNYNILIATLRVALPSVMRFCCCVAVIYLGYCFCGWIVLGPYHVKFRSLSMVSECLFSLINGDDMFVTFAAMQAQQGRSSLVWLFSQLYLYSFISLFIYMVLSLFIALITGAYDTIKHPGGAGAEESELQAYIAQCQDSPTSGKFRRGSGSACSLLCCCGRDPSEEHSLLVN
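Calcium fluorescence in TRPML1-DL cells induced overnight with Tet: a 110 s read after compound pin addition, then a 110 s antagonist read after challenge with 54-4 at 4 uM final (EC80).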
gsp antagonist = gsp mutant antagonism. Potency, µM (highest dose often 76.9 µM), inactives show top-dose activity change, negative = inhibition, actives largely listed as inhibitors. gsp-mutant cells, cAMP HTRF, 30 min; control for the full effect not named in the record. actives 0.4% (n = 340,000); active = falling curve of any shape with a large fitted effect; inconclusive = falling curve, mostly with a smaller effect; inactive = flat or rising curve; cell line not stated here;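 note: intracellular cAMP measured with PDE inhibitor Ro 20-1724 present during compound exposure; potency is the fitted concentration of half-maximal effect; % is set by controls: 0 for no effect and ±100 for the full control effect; nearly all actives have a fitted effect of over 65% in size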
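HTRF cAMP measurement after 30 min RT detection following 30 min, 37C compound treatment alongside […] (added as 300 uM solution) in G418-selected cells seeded at 2000/well and grown 16–24 h.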
Menin MLL FP FL = menin-MLL binding inhibition, fluorescein peptide | Fluorescence polarization, fluorescein-MLL peptide displacement from menin | FP activity change, % at 61.4 µM | 290,000 tested, under 10 active; inconclusive = falling polarisation curve, or a change in total fluorescence; inactive = total fluorescence flat and polarisation flat or rising; no compound was filed as active; the % refers to the polarisation; negative = inhibition;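 note: % of control where 0% means no effect; inhibitors lower the polarisation; unlabelled MLL peptide was the positive control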
gsp ag = activates gsp, the McCune-Albright syndrome mutation; gsp mutant cells, cAMP HTRF, 30 min; control for the full effect not named in the record; Potency, µM (doses to about 76.9 µM), inactives show at the top dose activation (cAMP increase), hits mostly activators; actives 0.13% (n = 340,000); active = well fitted activation curve with a large enough effect; inconclusive = small, poorly fitted or top-dose-only effect, or another doubt; inactive = no such curve, though single readings can be large or run the other way; cell line not stated here;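 note: phosphodiesterase inhibitor Ro 20-1724 added with compounds to block cAMP breakdown; potency is the fitted concentration of half-maximal effect; nearly all actives have a fitted effect of over 60% in size; about a fifth of the inactives were tested at one dose only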
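Cells in DMEM/10% FBS with G418 were pretreated with compounds in DMSO plus […] (300 uM stock) for 30 min at 37C. cAMP was measured by HTRF (cAMP-d2 plus anti-cAMP antibody-K) after 30 min at room temperature.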
TRPML1 agonist = agonists of human TRPML1 channel | Q9GZU1 | TRPML1-expressing cells, Ca2+ dye fluorescence, FDSS; host cell line not named in the record; reference of the full effect not given here | activation, % (no concentration beside the values) | actives 0.12% (n = 410,000); in the data active = activation above about 50%; inconclusive = about 30% to 50%; inactive = below about 30%; note: 0% is about no effect; the text of the record puts the active cut at 80%
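Tetracycline-induced TRPML1-DL cells are seeded and incubated overnight before loading with a no-wash Ca2+ dye and quencher. Agonist activity is taken from the 110 s fluorescence read following compound pin-transfer on an FDSS, before EC80 54-4 challenge.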
An asterisk follows results filed as active; ? = inconclusive; nt = not tested or not shown; & = joins results of further samples; [ ] = another dose, or the depositor's remark.

smiles | ClpP mod | TRPML1 inh | gsp antagonist | Menin MLL FP FL | gsp ag | TRPML1 agonist
COc1ccc(CCNC(=O)C2CCCN(Cc3nc(-c4ccccc4C)oc3C)C2)cc1OC (stereo unspecified) | 1.1% | -9.6 | -9.1% | 3.8 | -46.3%[inhibitor] | 1.2
Cc1cc(Cl)ccc1OCCCC(=O)NN | nt | -8.5 | nt | 0.2 | 30.2%[15.4 µM] | 0.3
CSc1ccccc1NC(=O)c1cnccn1 | -1.4% | -5.9 | -0.4% | 5.7 | -37.5% | 0.4
CC1(c2nnc(Cc3ccccc3)o2)CC(c2ccc(Br)cc2)=NO1 (stereo unspecified) | 2.4% | 36.8 | -2.5% | nt | 5.4% | 0.1
COc1cccc(N2CCN(C(=O)CCSCc3ccccc3F)CC2)c1 | 1.2% | -4.4&-10.8 | -31.8% | 2.3 | -11.0%[15.4 µM] | -0.2&2.4
CC1CN(C(=O)C(C)N2CCN(c3cccc(Cl)c3)CC2)CC(C)O1 (stereo unspecified) | nt | -5.9 | nt | 0.3 | -4.8%[15.4 µM] | 0.0
CC(C)CCOP(=O)(c1ccc(N(C)C)cc1)C(O)c1ccc(N(C)C)cc1 (stereo unspecified) | -4.0% | 0.6 | 0.4% | -8.8 | -10.2% | 4.1
O=C(O)c1cc(S(=O)(=O)NCc2ccco2)c(Cl)cc1Cl | 0.1% | -6.2 | 5.9% | 2.6 | ? | -0.4
O=C(Nc1ccccc1C(=O)N1CCOCC1)c1cccnc1 | 0.6% | -9.6 | 10.4% | 1.2 | 0.3% | -0.3
COc1cccc(CNS(=O)(=O)c2cc3c(cc2Cl)NC(=O)CO3)c1 | 4.2% | 9.4 | 4.0% | 2.6 | ? | -0.5
CCOC(=O)N1CCN(C(=O)c2oc3ccc(S(=O)(=O)N(CC)CC)cc3c2C)CC1 | nt | 30.9 | -3.9% | nt | -10.9%[15.4 µM] | -0.4
Cc1ccc(C2CC2c2n[nH]c(=S)n2-c2cccc(C)c2)cc1 (stereo unspecified) | nt | 8.8 | -22.1% | 4.9 | -4.2%[15.4 µM] | -0.7

Reprinted from the part before: 2 entries, then new ones.
smiles | ClpP mod | TRPML1 inh | gsp antagonist | Menin MLL FP FL | gsp ag | TRPML1 agonist
CCOC(=O)N1CCN(C(=O)c2oc3ccc(S(=O)(=O)N(CC)CC)cc3c2C)CC1 | nt | 30.9 | -3.9% | nt | -10.9%[15.4 µM] | -0.4
Cc1ccc(C2CC2c2n[nH]c(=S)n2-c2cccc(C)c2)cc1 (stereo unspecified) | nt | 8.8 | -22.1% | 4.9 | -4.2%[15.4 µM] | -0.7
Cn1cc(C(=O)c2ccc(Cl)cc2Cl)cc1C(=O)N/N=C(\N)COc1ccc(F)cc1 | -0.4% | 21.9 | -11.6% | 7.4 | 25.7% | 2.0
COc1ccc(OCC(=O)NCCNC(=O)c2ccccn2)cc1 | nt | -5.7 | 6.4% | 6.4 | 6.1% | -0.4
CCCN(C(=O)c1cc(Cl)nc2ccccc12)c1c(N)n(Cc2ccccc2)c(=O)[nH]c1=O | 0.4% | -12.0 | 6.5% | nt | -0.8% | 0.1
Cc1ccc(NC(=O)C2=C(O)CCn3c2nc2ccccc23)cc1 | -1.5% | -13.3 | 5.0% | -2.4 | -26.3% | 1.6
Cc1ccc(C(=O)Nc2ccc(OCc3ccccc3)cc2)s1 | nt | 2.9 | -0.7% | -6.9 | -43.7%[inhibitor] | 1.4
CCC(=O)Nc1cc2[nH]c(=O)cc(C)c2cc1C | 4.0% | 10.8 | 4.0% | 2.7 | -1.2% | -0.2
O=C(Nc1ccc(Cl)c(Cl)c1)N1CCSCC1 | -1.0% | -1.2 | -9.7% | 5.5 | -31.4%[inhibitor] | 0.2
Cc1ccc(CN(Cc2cccn2-c2nnc(N3CCCC3=O)s2)C(=O)Nc2ccccc2Cl)cc1 | -29.4% | 16.1 | nt | nt | nt | 1.1
Cc1ccnc(SCc2cc(=O)c(OC(=O)c3cccs3)co2)n1 | nt | -8.0 | 3.3% | -3.5 | 8.5% | -1.0
O=C(/C=C/c1ccc(Cl)cc1)N(Cc1cccs1)C1CCS(=O)(=O)C1 (stereo unspecified) | 0.9% | 2.2 | -21.1% | 7.7 | -13.2% | 2.6
CCn1c(C(=O)N2CCC(C(=O)N3CCN(c4cccc(C)c4C)CC3)CC2)cc2sccc21 | 0.1% | 24.0 | nt | nt | nt | 1.5
CCC(C)(C)NC(=O)C(c1ccccc1)N(C(=O)c1csnn1)C1CC1 (stereo unspecified) | 1.2% | 7.7 | -7.4% | -1.3 | 19.6% | 0.1
COc1ccc(CNC(=O)C2CCCN2)cc1OC (stereo unspecified) | nt | 16.4 | 1.1% | -1.9 | 12.0%[15.4 µM] | 0.0
Cc1ccc2cccc(SCC(=O)N3CCOCC3)c2n1 | 28.2µM* | 3.2 | 4.8% | 2.2 | -4.1% | -0.1
O=C(Cn1c(=O)oc2ccccc21)Nc1ccc(F)c(F)c1 | 2.2% | 21.4 | 1.3% | -2.0 | -23.0% | 0.8
CCN1C(=O)C(CC(=O)Nc2ccc(OC)cc2)N(CCc2ccccc2F)C1=S (stereo unspecified) | ? | -11.9 | -26.6% | 2.2 | 1.0%[15.4 µM] | 0.5
Cc1ccc(C(=O)Nc2ccc3c(c2)OCO3)o1 | 1.1% | 3.0 | 2.4% | 2.1 | -46.5%[inhibitor] | -1.4
CC(=O)Nc1c(C(=O)Nc2ccccc2F)oc2ccccc12 | 33.1% | 2.5 | nt | nt | nt | -1.2
c1ccc(-c2nc3nonc3nc2-c2ccccc2)cc1 | 1.2% | -12.6 | 17.8% | -3.6 | 8.2% | 0.1
CCOC(=O)CNC(=O)CSc1nc(Cc2ccccc2)nc2ccccc12 | 1.4% | -9.2 | 5.6% | 0.1 | 14.1% | 1.2
COc1ccccc1OCC(=O)N(Cc1nc(-c2ccccc2)no1)C1CCCCC1 | -2.5% | 25.8 | ? | -2.3 | -46.8%[inhibitor] | 3.3
COc1ccccc1C(=O)N1CCN(S(=O)(=O)c2ccccc2)CC1 | -0.5% | -8.5 | -1.0% | 3.2 | -57.4%[inhibitor] | -0.4
O=C(N/N=C\c1cc(Br)cs1)C1COc2ccccc2O1 (stereo unspecified) | 2.9% | 4.9 | 15.4% | 4.8 | -53.0%[inhibitor] | -0.2
CCOC(=O)c1ccc2c(c1)nc(C)n2CC | -2.9% | 10.1 | 9.1% | nt | -10.8%[15.4 µM] | 0.6
CC(=O)c1ccc(NC(=O)Nc2ccc3c(c2)N(C)C(=O)CS3)cc1 | -2.4% | -6.4 | 35.5µM* | 1.5 | ? | 1.0
CC(C)NC(=O)CCN1C(=O)c2ccccc2Sc2ncccc21 | 0.6%&1.8% | 11.0&-1.6 | 7.4% | -9.2 | 16.5% | -0.3&0.2
Cc1cccc(-c2nn3c(=O)cc(CN4CCN(S(=O)(=O)c5ccc(Cl)cc5)CC4)nc3s2)c1 | -6.2% | -10.6 | nt | nt | nt | 1.3
O=P(OC1CCCCC1)(OC1CCCCC1)C(O)c1ccccc1 (stereo unspecified) | -0.1% | 17.9 | 4.5% | 3.7 | -18.3% | 0.8
Cc1ccc(NC(=O)CN(C)C(=O)c2ccc(NS(=O)(=O)c3ccc4[nH]c(=O)[nH]c4c3)cc2)cc1 | -1.4% | 0.5 | 11.8% | nt | 8.6% | 2.4
COC(=O)c1ccc(C(=O)NC2CC(C)(C)Cc3c2cnn3-c2ccc(F)cc2)nc1 (stereo unspecified) | -0.3% | 32.7 | 4.8% | nt | -34.5%[inhibitor] | 1.2
COC(=O)C1CCN(C(=O)COC(=O)c2ccc(OC)c(S(=O)(=O)N3CCCc4ccccc43)c2)CC1 | -4.7% | -19.8 | -14.0% | ? | -82.2%[inhibitor] | 0.7
COCC(=O)Nc1ccc(S(=O)(=O)N2CCCC2)cc1 | 0.3% | -3.0 | 20.2% | -1.3 | -0.6%[15.4 µM] | -0.8
O=S(=O)(c1ccc(NC(=S)N/N=C/c2c3ccccc3cc3ccccc23)cc1)N1CCOCC1 | 0.9% | 7.6 | 1.6% | ? | 8.3% | 0.5
CN(C(=O)COC(=O)c1ccc(Cl)c(S(=O)(=O)N2CCCCC2)c1)C1(C#N)CCCCC1 | 3.0% | 0.4 | -14.7% | nt | -39.0% | 0.0
COC(=O)c1sccc1NC(=O)c1ccc2c(c1)OCO2 | -9.8% | -5.0 | 4.6% | -0.8 | -26.2% | -0.5
CC(=O)N/C(N)=N/c1nc2cc([N+](=O)[O-])ccc2o1 | nt | 15.5 | -0.1% | -0.3 | -12.0%[15.4 µM] | 0.9
Cc1cc(NC(=O)CSc2ncnc3sccc23)no1 | nt | 6.3 | 1.6% | 0.2 | ? | 0.4
COc1ccc(C2CC(c3ccccc3)=NN2C(=O)CSc2nnnn2-c2cccc(C)c2)cc1 (stereo unspecified) | nt | -12.3 | 5.6% | nt | -31.5%[15.4 µM] | 0.3
CCc1ccc(NC(=O)c2sc3nc4c(cc3c2N)CN(CC)CC4)cc1 | -3.7% | 1.2 | nt | nt | nt | 0.8
CCC(=C(c1ccc(OC)cc1)c1ccc(OC)cc1)c1cn(CC(O)CN2CCN(C)CC2)c2ccccc12 (stereo unspecified) | -1.8% | -18.2 | 16.3% | -0.8 | 9.2% | 0.1
O=C1CC(c2ccco2)CC(O)=C1C=NCCN1CCNCC1 (stereo unspecified) | 0.6% | 42.0 | -11.9% | 0.6 | -47.8%[inhibitor] | 1.0
C#CCOCCOCCOCCNc1nc(N2CCOCC2)nc(N2CCN(C(=O)[C@H](CC(N)=O)n3cc([C@@H](N)C(C)C)nn3)CC2)n1 | 1.1% | -5.3 | 9.0% | nt | -5.6% | -0.4
COc1ccc(CCN(C(=S)Nc2ccccc2)C2CC(=O)N(c3ccccc3)C2=O)cc1 (stereo unspecified) | 3.9% | -17.1 | -29.4% | 1.6 | -15.3% | 0.3
Oc1ccccc1CNn1cnnc1 | -0.2% | 19.1 | 9.7% | 0.9 | -15.4% | -0.9
COc1ccc(OC)c(S(=O)(=O)N2CCC(c3ccncc3)CC2)c1 | -1.6% | -11.6 | nt | nt | nt | -0.1
CCNS(=O)(=O)c1ccc(CCC(=O)NCCc2ccc(OC)cc2)cc1 | nt | -11.4 | -4.7% | -1.0 | ? | 2.8
Cc1ccc(Cl)cc1NS(=O)(=O)c1ccccc1 | nt | 7.2 | -3.3% | nt | -26.1% | 11.2
COc1cc(C(=O)NCC(=O)N2CCN(S(=O)(=O)c3ccccc3C(F)(F)F)CC2)cc(OC)c1OC | 0.8% | 3.7 | -6.7% | nt | ? | -0.7
O=C1/C(=C/c2ccco2)SC(=S)N1CC1CCCO1 (stereo unspecified) | nt | -5.0 | 8.9% | ? | 3.3%[15.4 µM] | 1.6
